# Screens deposited in PubChem by National Center for Advancing Translational Sciences (NCATS).
# LT uptake inh: anthrax lethal toxin internalization inhibition. Cells, anthrax lethal toxin internalization, FRET ratio (460/530). Potency, µM (highest dose often 40 µM), for inactives: top-dose activity change, negative = inhibition, actives largely listed as inhibitors. 70,000 compounds, 0.67% hits. AID 912; active = well fitted falling ratio curve with the 530 nm signal flat; inconclusive = other ratio curves, or a change in one channel alone; inactive = flat curves in the ratio and both channels; the % refers to the ratio; further: on the % scale 0 is the no-effect control and ±100 the full control effect; nearly all actives have a fitted effect of over 50% in size; tested in ME-180 cells; beta-lactamase reporter
# SmPrx2 inh: blocks S. mansoni peroxiredoxin 2 enzymatic activity; S. mansoni Prx2 activity coupled to TGR/GSH (TGR is thioredoxin glutathione reductase), NADPH fluorescence loss, qHTS; some inactives read as strong as hits; Potency, µM; 65,000 compounds, 0.07% hits; active means full or partial inhibition curve with a strong effect at the top dose; inconclusive means weaker partial or single-point curve; inactive means no accepted curve; further: series up to 57 µM; many of its hits are not listed in these tables
#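 Coupled assay in which S. mansoni TGR passes NADPH reducing equivalents via glutathione to Prx2, which reduces H2O2. Compounds were preincubated 15 min at room temperature with 25 nM TGR/50 nM Prx2 mix. Kinetic NADPH fluorescence loss (ex 365/em 450 nm) was monitored.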
# The depositor's hits bear a star; ? = inconclusive; . = not tested or not shown; & = joins results of further samples; [ ] = another dose, or the depositor's remark. Potency means the concentration at half of the fitted maximal effect. The list is partial, so the mix of outcomes need not match the whole.
# Values run as follows: LT uptake inh, SmPrx2 inh
CCn1cc(C(=O)NC2CC3CCC2C3)c(=O)c2ccc(C)nc21 (stereo not given)
 : ?, >57
O=C(O)CCCCCNc1nc(=S)[nH]c2ccccc12
 : 11.2%, .
Cc1cc2c(=O)n(CC(=O)N3CCN(c4ccccc4)CC3)cnc2s1
 : 2.3%, >57
CCOC(=O)N1CCC(N2CC34C=CC(O3)C(C(=O)Nc3ccc(C)cc3)C4C2=O)CC1 (stereo not given)
 : 2.4%, >57
CC(NC(=O)c1cc2ccccc2o1)c1cccs1 (stereo not given)
 : -10.6%, >57
Cc1ccccc1-n1nc(C)c2cc(C(=O)N3CCN(S(=O)(=O)c4ccc(F)cc4)CC3)sc21
 : 3.2%, >57
COCC(=O)N1CCC[C@@]2(CCN(c3ccccn3)C2)C1
 : -9.2%, >57
COc1ccc(-n2c(N)c(C(=O)NCC3CCCO3)c3nc4ccccc4nc32)c(OC)c1 (stereo not given)
 : ?, >57
CC(C)n1c(NCc2cc(Cl)ccc2O)nc2ccccc21
 : ?, >57
Cc1cc(OCC(=O)Nc2ccc3c(c2)OCCO3)ccc1Cl
 : ?, >57
Cc1ccc(-n2c(SCC(=O)N3CCOCC3)nnc2-c2ccncc2)cc1
 : ., >57
Cc1ccnc(-n2c(CCN3C(=O)c4ccccc4C3=O)nc3ccccc3c2=O)c1
 : 0.3%, >57
CO[C@H]1COC(=O)[C@@H](C)NC(=O)C/C=C\[C@@H](C)[C@H](OC)COC(=O)C/C=C\[C@@H]1C
 : 5.2%[8 µM], .
NC(=O)COc1ccc(=O)n(-c2ccccc2)n1
 : -8.0%, >57
COC(=O)C1=C(CN2CCSCC2)NC(=O)NC1c1cc(C)ccc1C (stereo not given)
 : -5.7%, >57
COC(=O)C1C(=O)C2=C(CC1C)NC(C)=C(C(=O)OCCOc1ccccc1)C2c1ccc(C)o1 (stereo not given)
 : ?, >57
O=S(=O)(NCc1ccccc1Cl)c1cnc[nH]1
 : -4.0%, >57
Cc1cc2ccccc2n1CCNC(=O)C1CC1
 : 3.6%, >57
O=C(c1cccc(F)c1)N1CCC2(CC1)CCN(c1ccncc1)CC2
 : ?, >57
CCOC(=O)Nc1nnc(-c2ccc(OC)c(OC)c2)s1
 : ?, >57
Cc1cc(C(F)(F)F)c2c(=O)[nH]c(=O)n(Cc3ccccc3)c2n1
 : 7.7%, >57
O=C(c1cc(-c2cccs2)on1)N1CCOCC1
 : -11.5%, >57
Cc1onc(-c2ccccc2)c1C(=O)Nc1nnc(COc2ccc(Cl)cc2)s1
 : -9.0%, >57
O=C(O)C(Cc1ccccc1)n1cccc1 (stereo not given)
 : 8.3%, >57
O=C(C(NS(=O)(=O)c1cccs1)c1ccccc1)N1CCN(c2ccccc2)CC1 (stereo not given)
 : -10.4%, >57
COc1ccc(S(=O)(=O)Cc2ccc(C(=O)NCc3cccs3)o2)cc1
 : -10.7%, >57
Nc1ccc(S(=O)(=O)NCCS(=O)(=O)O)cc1
 : -1.2%[8 µM], >57
O=C(NCC(=O)N(c1cccnc1)C(C(=O)NCc1ccco1)c1ccccc1)c1ccco1 (stereo not given)
 : -2.9%, >57
COC(=O)[C@@]1(Cc2ccc(OC)cc2)[C@H]2c3cc(C(=O)N4CCCC4)n(CCO)c3C[C@H]2CN1C(=O)c1ccccc1
 : -4.0%, >57
O=C(Nc1ccccc1N1CCCC1)c1cc2ccccc2o1
 : ?, >57
CCNS(=O)(=O)c1ccc(NC(=O)Nc2cccc(C(F)(F)F)c2)cc1
 : ?, .
CCCCn1c(=N)n(CC(=O)C(C)(C)C)c2ccccc21
 : -3.4%, >57
CCOc1ccccc1NC(=O)C1CCN(S(=O)(=O)c2c(C)nn(C)c2C)CC1
 : 0.3%, >57
CCC(=O)c1cn(CC(=O)NCC2CCCO2)c2ccccc12 (stereo not given)
 : 6.2%, >57
CCCCOc1ccc(-c2nnn(CCC(=O)N3CCOCC3)n2)cc1
 : 2.4%, >57
N#Cc1ccc(CSc2nnc(-c3ccccn3)n2-c2ccc(Cl)cc2)cc1
 : ?, >57
COC(=O)c1ccc(C(=O)OC)nc1
 : -0.7%, >57
COc1ccc(N(CC(=O)Nc2cccc(N(C)S(C)(=O)=O)c2)S(C)(=O)=O)cc1OC
 : 0.7%, >57
CCC[C@@H]1C[C@@]1(CCC)C(NP(=O)(c1ccccc1)c1ccccc1)c1ccc(Cl)cc1 (stereo not given in full)
 : -1.3%, >57
COC(=O)c1ccccc1NC(=O)COc1ccc(S(=O)(=O)N2CCCC2)cc1C
 : -9.0%, >57
Cn1nc(SCC(=O)O)sc1=S
 : 2.6%, >57
COc1cccc(Nc2ncccc2C(=O)NCc2ccccc2)c1
 : -13.5%, >57
O=C(Cn1cnc2ccccc21)OCC(=O)N1CCCc2ccccc21
 : 5.0%, >57
O=C(O)c1ccc(Cl)c(Cl)c1
 : -4.2%, .
CN1C(=O)CS(=O)c2ccc(C(=O)NC3CC3)cc21 (stereo not given)
 : 2.0%, >57
Cc1cc(Cl)ccc1O
 : -1.8%, .
COc1ccc(N2C(=O)C3CCCN3C2c2cccc(OC)c2OC)cc1 (stereo not given)
 : 16.8%, >57
Cc1ccc(-n2ncc3c(=O)n(Cc4cccnc4)cnc32)cc1
 : -14.3%, >57
COc1ccc(-n2c(=O)c(-c3ccccc3)nc3cncnc32)cc1
 : ?, >57
COc1ccc(C2NC(=O)NC(O)(C(F)(F)F)C2C(=O)c2ccc(C)cc2)cc1 (stereo not given)
 : ?, .
O=C(COC(=O)CCC(=O)c1ccc(F)cc1)Nc1ccc(N2CCOCC2)cc1
 : -12.8%, >57
COc1cccc(-n2c(COc3ccc(C)cc3)nnc2SCC(N)=O)c1
 : -12.2%, >57
CCC(CC)c1nnc(NC(=O)c2c(-c3ccccc3)noc2C)s1
 : 12.9%, >57
O=C(O)Cn1ccnc1[N+](=O)[O-]
 : 6.8%[8 µM], >57
COc1ccccc1-c1nnn(CC#N)n1
 : 9.0%, >57
Nc1nc2ccccc2n1CCN1CCCC1
 : -22.4%, >57
CN1CCN(c2ncc3nc(-c4cccs4)c(=O)n(Cc4cccs4)c3n2)CC1
 : ?, >57
CN1C(=O)C(CC(=O)Nc2ccc3c(c2)Cc2ccccc2-3)N(C)C1=O (stereo not given)
 : -2.9%, >57
O=C(COC(=O)c1ccco1)Nc1ccccc1
 : -8.9%, >57
CCN(C(=O)Cn1c(=O)n2nc(CCn3nc(C)cc3C)nc2c2ccccc21)c1cccc(C)c1
 : 6.7%, >57

# (more compounds)
# Values run as follows: LT uptake inh, SmPrx2 inh
CCNc1ncc2nc(-c3cccc(C#N)c3)c(=O)n(C)c2n1
 : ?, >57
COc1ccccc1NC(=O)CSc1nnnn1-c1ccc2c(c1)OCO2
 : -8.0%, >57
CCC(=O)Nc1c(-c2cccs2)c(=O)c2ccccc2n1C
 : ., >57
CCOc1ccc(OCc2ccc(C(=O)Nc3cccc(C)n3)o2)cc1
 : ?, >57
COc1ccccc1Nc1nc2c(s1)CCC2
 : -7.7%, >57
CCc1cc2c3c(c(=O)oc2cc1O)CCCC3
 : ., >57
COc1ccc(-c2ccc(-c3noc(-c4ccncc4)n3)c(OC)n2)cc1
 : 11.4%, >57
COc1ccc(C2C(C#N)=C(N)OC3=C2C(=O)CCC3)c(OC)c1OC (stereo not given)
 : 10.5%, >57
Cc1cc(C(=O)CSc2nnc(-c3ccc(OC(F)F)cc3)o2)c(C)n1Cc1cccs1
 : -1.6%, >57
CCCCOc1ccc(C(=O)N2CCCCCC2)cc1
 : -10.0%, >57
O=C(Nc1ccccc1-c1ccccc1)NC1CCN(CC(=O)N2CCOCC2)CC1
 : 3.2%, >57
CSc1ccc(N2C(=O)NC3(CCCCC3)C2=O)cc1
 : -0.3%, >57
c1ccc(COc2ccc(OCCn3cncn3)cc2)cc1
 : 11.5%, >57
CC(n1cnnn1)C12CC3CC(CC(C3)C1)C2 (stereo not given)
 : -13.8%, >57
COC(=O)[C@H]1[C@H]2C[C@@H]3c4[nH]c5cc(OC)ccc5c4CCN3C[C@H]2C[C@@H](OC(=O)c2cc(OC)c(OC)c(OC)c2)[C@@H]1OC
 : ?, .
Cc1cccc(/N=C/c2c(O)c3ccccc3oc2=O)n1
 : ?, >57
Cc1nnc(SCC(=O)NCc2ccco2)[nH]c1=O
 : 0.3%, >57
O=C(Cn1nnc(-c2ccccc2F)n1)Nc1ccc2c(c1)OCO2
 : -20.6%, >57
CCN(C(=O)CCc1nc(-c2ccccc2F)no1)c1cc(OC)ccc1OC
 : -10.0%, >57
CCN(CC)CCCN1C(=O)C(=O)/C(=C(/O)c2ccc(OC)c(Cl)c2)C1c1ccco1 (stereo not given)
 : 1.5%, >57
CCOC(=O)N1CCN(c2ccc(C(=O)CC)cc2F)CC1
 : -2.8%, .
CC(C)NC(=O)CCNS(=O)(=O)c1ccc(Br)cc1
 : -17.8%, >57
O=C(CCCn1c(=O)[nH]c2cc(Cl)ccc2c1=O)N1CCC2(CC1)OCCO2
 : -2.5%, >57
C[C@@](N)(C(=O)O)c1ccc(C(=O)O)cc1
 : 0.9%&-9.6%&-7.5%, >57&>57&>57
CCOC(=O)N1CCN(C(=O)Nc2ccc3nc(C)sc3c2)CC1
 : 5.6%, >57
N#CC1=C(N)OC2=C(C(=O)CCC2)C12CCC1(CC2)OCCO1
 : -12.0%, >57
CCOC(=O)N1CCN(S(=O)(=O)c2ccc(C(=O)Nc3sc4c(c3C#N)CCC4)cc2)CC1
 : -4.9%, >57
COc1ccccc1N1CC(C(=O)OCC(=O)c2ccc(F)cc2)CC1=O (stereo not given)
 : 4.1%, ?
O=C(O)CCCNS(=O)(=O)c1cccs1
 : -10.3%, >57
COc1ccc(CNC(=O)CCn2c(=O)oc3ccccc32)cc1
 : -8.7%, >57

# 2 entries from above, as tab-separated lines:
SMILES	LT uptake inh	SmPrx2 inh
CCCCOc1ccc(C(=O)N2CCCCCC2)cc1	-10.0%	>57
O=C(Nc1ccccc1-c1ccccc1)NC1CCN(CC(=O)N2CCOCC2)CC1	3.2%	>57

# Further compounds follow:
# Values run as follows: LT uptake inh, SmPrx2 inh
CCOP(=O)(c1ccc(N(C)C)cc1)C(O)c1ccccc1OC (stereo not given)
 : 3.2%, >57
CCOc1ccc2[nH]c(=O)c(CN(Cc3nnnn3Cc3ccccc3)CC3CCCO3)cc2c1 (stereo not given)
 : 3.2%, >57
c1ccc2[nH]c(-c3cscn3)nc2c1
 : -6.5%, >57&>57
COc1ccc2nc(C)cc(C(=O)O)c2c1
 : 4.6%, >57
CCC(c1nnc(SCC(=O)NCC2CCCO2)n1Cc1ccccc1)N(C)C (stereo not given)
 : 6.7%, >57
CO[C@@H]1COC(=O)[C@H](COCc2ccccc2)NC(=O)C/C=C\[C@@H](C)[C@H](OC)COC(=O)[C@@H](C)NC(=O)C/C=C\[C@H]1C
 : -2.3%[8 µM], .
CCOc1ncccc1C(=O)OCc1cc(=O)n2c(n1)sc1ccccc12
 : -1.0%, >57
COc1ccc(-c2nc3ccccc3c(=O)n2CCCn2ccnc2)cc1
 : 19.1%, >57
Cc1ccc(C2C(C#N)=C(N)Oc3cc4c(cc32)OCO4)cc1 (stereo not given)
 : -21.1%, >57
Cn1ncc2c1ncn1c(-c3ccccc3Cl)nnc21
 : -6.2%, >57
COc1ccc(S(=O)(=O)N2CCC(C(=O)N3CCOCC3)CC2)cc1OC
 : 12.4%, .
Cc1c(Br)cc(-c2nnco2)cc1Br
 : -19.3%, >57
CCCc1ccc(Oc2cn[nH]c2-c2ccc(O)cc2O)cc1
 : -29.8%, .
CC(=O)NC1C(=O)N=C(SCC(=O)NCc2ccccc2)NC1=O (stereo not given)
 : -5.0%, >57
Cc1c(NC(=O)Cn2cnc3c(=O)n(C)c(=O)n(C)c32)cccc1-c1nc2ccccc2o1
 : -8.3%, >57
Cc1onc(-c2ccccc2Cl)c1C(=O)Nc1ccc(CN2CCCC2)cc1
 : ?, >57
COc1cc2[nH]c(=O)n3nc(-c4ccccc4)nc3c2cc1OC
 : -13.8%, >57
N#Cc1ccc(CN2CCC3(CC2)CCN(S(=O)(=O)c2ccccc2)CC3)cc1
 : -0.3%, >57
CCOC(=O)Cn1c(CN2CCN(c3cccc(Cl)c3)CC2)nc2c1c(=O)[nH]c(=O)n2C
 : -9.1%, >57
O=C(COc1ncnc2ccccc12)NCCCN1CCCC1=O
 : 12.3%, >57
O=C(Nc1ccc2c(c1)OCCO2)c1ccc(CN2CCOCC2)cc1
 : -27.5%, >57
C[C@@H]1CC2(OC[C@]3(C)O[C@H]23)O[C@H]2C[C@@]3(C)[C@@H]4CC[C@H]5C(C)(C)C(O[C@@H]6OC[C@@H](O)[C@H](O)[C@H]6O)CC[C@@]56C[C@@]46CC[C@]3(C)[C@@H]12 (stereo not given in full)
 : 13.9%, .
CCOC(=O)c1c(C)oc2ccc(O)c(CN3CCCCC3)c12
 : -35.4%, >57
COc1ccc(-c2cc(-c3cccs3)c(C#N)c(SCC(=O)NCc3ccco3)n2)cc1
 : -12.1%, >57
Cc1noc(C)c1CSc1ncnc2sc(C)c(C)c12
 : 3.1%, >57
O=C(Nc1ccccc1)Nc1nncs1
 : ?, >57
O=C1NC(=O)[C@@](Cc2ccccc2)(c2cccnc2)N1
 : 3.7%[8 µM], >57
O=C(CSc1nc2ccccc2c(=O)n1-c1ccccc1)NCc1ccco1
 : -9.1%, >57
CCN1CCN(C(c2ccc(F)cc2)c2nnnn2Cc2cccs2)CC1 (stereo not given)
 : 1.7%, >57
O=C(c1ccc(Cl)s1)N1CCN(c2ccccc2)CC1
 : -16.3%, >57
